Screens as filed in PubChem BioAssay.
Calb biofilm kill: mixture kills Candida albicans biofilm cells; C. albicans biofilm persisters + clotrimazole, fluorescence viability; primary screen in compound mixtures of four per well; inhibition, % at 7.6 µM; hit rate 0.02% among 120,000; AID 1242;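 active = inhibition above 30.3% in the primary screen of four-compound pools, then above 30% when the compound was retested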;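 also: compounds exposed to preformed 24 h biofilms for 48 h; the number belongs to the whole pool; some results filed as inactive read as strong as hits; inactives centre near 12; 0% = biofilm with clotrimazole alone and 100% = kill control; retested singly at about 60 µM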
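Test system: C. albicans CAF4-2 wild-type biofilms; buffer or medium: RPMI/MOPS medium, pH 7.0; schedule: 24 h biofilm formation, then 48 h compound exposure, 37 °C; detection: Alamar Blue fluorescence; measure: percent inhibition of biofilm viability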
Numbers without * were called inactive. A portion of the library; count on the stated rates, not on these rows.

smiles | Calb biofilm kill
O=C(c1ccc(Cl)c([N+](=O)[O-])c1)N(Cc1ccc(F)cc1)C1CCS(=O)(=O)C1 (centres undefined) | 17
C#CCOCCOCCOCCNc1nc(N2CCN(C(=O)[C@H]([C@@H](C)CC)n3cc(CCCN=C(N)N)nn3)CC2)nc(N2CCN(C(=O)[C@H](CCCCN)n3cc(CCCC)nn3)CC2)n1 | 11
COc1ccc(C(CNC(=O)COc2ccc(Br)cc2F)N2CCCC2)cc1 (centres undefined) | 14
COCC1CCN(Cc2nc(-c3ccc4c(c3)OCO4)no2)C1 (centres undefined) | 30
Cn1ccc(C(=O)NC(=S)N2CCSCC2)n1 | 22
O=C(NCCc1cn2ccccc2n1)c1cc(COc2ccc3ncccc3c2)on1 | 17
O=C(COc1ccc(Cl)cc1)N1CCN(c2ccc([N+](=O)[O-])c(N3CCOCC3)c2)CC1 | 9
COc1cccc(-n2c(=O)c3cc(OC)c(OC)cc3n(CC(=O)Nc3cc(C)[nH]n3)c2=O)c1 | 11
Cc1ccc2cccc(OCC(=O)Nc3ccc(N4CCOCC4)cc3)c2n1 | 14
CCOc1cc(N2CCOCC2)c(OCC)cc1NC(=O)c1c(-c2ccccc2Cl)noc1C | 17
Cc1ccc(C(=O)N2NC(c3ccc(F)cc3)C3C(=O)N(c4ccc(C)cc4)C(=O)C32)cc1 (centres undefined) | 9
O=C1c2ccc3c4c(ccc(c24)C(=O)N1c1cccc(O)c1)CC3 | 7
COC(=O)Cc1ccc(NC(=O)C(c2ccccc2)c2ccccc2)cc1 | -4
O=C(COC(=O)c1cnccn1)c1ccc(Cl)cc1 | 6
CCCN1CNC(=S)N(CCc2ccccc2)C1 | 11
COc1ccc(C(NC(=O)C2CCCCC2)c2c(O)ccc3ccccc23)cc1 (centres undefined) | 16
Nc1ccc2nc(-c3ccccn3)[nH]c2c1 | 12
CC(=O)c1cc(-c2ccccc2)n(CC(=O)Nc2ccc(C)c(C)c2)c1C | 6
CC(C)NC[C@H](O)COc1cccc2[nH]ccc12 | 14
Cc1onc(-c2ccccc2)c1C(=O)NC(=S)NNC(=O)c1cccnc1 | 13
O=C(CCC1CCCN(C(=O)c2ccc3cc[nH]c3c2)C1)NCc1ccc(F)c(F)c1 (centres undefined) | 19
CCc1cccc2c(C(=O)COC(=O)c3cccc(S(=O)(=O)N(C)C4CCCCC4)c3)c[nH]c12 | 8
COc1ccc(NC(=O)CSc2nc3[nH]ncc3c(=O)n2-c2ccccc2OC)cc1OC | 19
CC1CCCN(S(=O)(=O)c2ccc(N(C(=O)c3cnccn3)C(C(=O)NC3CCCCC3)c3cccs3)cc2)C1 (centres undefined) | 6
COc1ccc(NC(=O)Nc2ccccc2)cc1S(=O)(=O)N1CCCCC1 | 13
COc1ccc(C(=O)C2CCCN(Cc3cnc(N4CCOCC4)s3)C2)cc1F (centres undefined) | 10
COc1cc(/C=N/N=C(\N)c2nonc2N)cc(OC)c1O | 28
Cc1cc(C)c2sc(N)nc2c1 | 20
CCN(CC)CCNCC(=O)Nc1ccc(Oc2ccccc2)cc1 | 15
COc1ccc(-n2c(=S)[nH]c3c(oc4ccccc43)c2=O)cc1 | 3

By substructure: the entries above with a Cl atom.
smiles | Calb biofilm kill
O=C(c1ccc(Cl)c([N+](=O)[O-])c1)N(Cc1ccc(F)cc1)C1CCS(=O)(=O)C1 (centres undefined) | 17
O=C(COc1ccc(Cl)cc1)N1CCN(c2ccc([N+](=O)[O-])c(N3CCOCC3)c2)CC1 | 9
CCOc1cc(N2CCOCC2)c(OCC)cc1NC(=O)c1c(-c2ccccc2Cl)noc1C | 17
O=C(COC(=O)c1cnccn1)c1ccc(Cl)cc1 | 6

Next part
smiles | Calb biofilm kill
O=C(Cc1ccccc1)NC1(Cc2ccc(O)cc2)CCCCC1 | 10
CCOC(=O)c1ccc(NC(=O)c2nc[nH]c2C(=O)NCCCCCNC(=O)OC(C)(C)C)cc1 | 7
O=C(NC1CCCCCC1)C(=S)NCc1ccccc1 | 1
CC1=NN(C(=O)CCc2ccccc2)C(c2ccccc2)C1 (centres undefined) | 15
CCOC(=O)c1[nH]c2c(c1-c1ccccc1)C(=O)CC(c1ccc(OC)c(OC)c1)C2 (centres undefined) | 19
O=C(COC(=O)CCN1C(=O)c2cccc([N+](=O)[O-])c2C1=O)NCc1ccccc1 | 13
NC(=O)CC[C@@H]1NC(=O)[C@H](CO)NC(=O)c2cc([N+](=O)[O-])cc(I)c2NCC[C@@H](C(N)=O)NC(=O)[C@H](Cc2ccc(O)cc2)NC1=O | -1
Cc1ccc(N2C(=O)C3CC3C2=O)cc1 (centres undefined) | 14
CCOCCCNC(=O)C(c1ccc(C)cc1)N(Cc1ccc2c(c1)OCO2)C(=O)c1ccccn1 (centres undefined) | 0
COc1ccc(NC(=O)c2ccc([N+](=O)[O-])s2)c([N+](=O)[O-])c1 | 8

Ordered by heavy-atom count (low to high): some entries from above
smiles | Calb biofilm kill
Cc1cc(C)c2sc(N)nc2c1 | 20
Cn1ccc(C(=O)NC(=S)N2CCSCC2)n1 | 22
Cc1onc(-c2ccccc2)c1C(=O)NC(=S)NNC(=O)c1cccnc1 | 13
COc1ccc(C(NC(=O)C2CCCCC2)c2c(O)ccc3ccccc23)cc1 (centres undefined) | 16
O=C(COC(=O)CCN1C(=O)c2cccc([N+](=O)[O-])c2C1=O)NCc1ccccc1 | 13
CCc1cccc2c(C(=O)COC(=O)c3cccc(S(=O)(=O)N(C)C4CCCCC4)c3)c[nH]c12 | 8

(listing goes on)
smiles | Calb biofilm kill
CN(C)/C=C/C(=O)c1ncc(C(F)(F)F)cc1Cl | 18
O=C(C1=C(O)C(=O)N(c2ncccn2)C1c1ccc(F)cc1)c1ccco1 (centres undefined) | 6
CC(C)CCc1noc(CN2CCN(c3ccc(Cl)cn3)CC2)n1 | 14
CN1CCN(C(CC(=O)Nc2cccc(O)c2)C(=O)O)CC1 (centres undefined) | 7
C=CCC(CC(O)COCCC)C(=O)NNC(=S)Nc1ccccc1 (centres undefined) | 16
O=[N+]([O-])c1ccc(OCC(O)CNCCNc2nccc(C(F)(F)F)n2)cc1 (centres undefined) | 17
O=C(NN=C1CCCCCC1)NC1CCCCC1 | 13
O=C(Nc1ccc(Cl)cc1)Nc1csc([N+](=O)[O-])c1 | 22
COc1ccc(NC(=O)Nc2ccc(N3CCOCC3)c3nonc23)c(OC)c1 | 3
CN(C)[C@@H](CO)c1nnc([C@H](CCC(=O)O)NC(=O)C2CCNCC2)o1 | 19
COc1ccc(/C=C(\C#N)C(=O)OCC(=O)Nc2ccc(C(C)(C)C)cc2)cc1 | 16
CCOC(=O)C1(Cc2cccc(F)c2)CCN(C(=O)c2cscn2)CC1 | 4
O=C(NCc1ccc2c(c1)OCO2)C1CCC(=O)N1C1CCCCC1 (centres undefined) | 12
Cc1cccc(C)c1OCC(=O)N/N=C/c1cccn1C | 17
CCc1c(-c2ccccc2)[n+](=O)c2c(n1[O-])CCC2 | 13
CC(C)c1ccc(N(CC(=O)N/N=C/c2ccc(OC3CSC3)cc2)S(=O)(=O)c2ccccc2)cc1 | 5
Nc1cccc(CCc2nc3ccccc3[nH]2)c1 | 13
O=C(CNC(=S)N(Cc1ccccc1)Cc1ccccc1F)NCc1ccccc1 | 12
C=C(C)CNC(=S)NNC(=O)c1cc(C)oc1C | 13
CCCOc1ccc(C(=O)Nc2nc(C)c(Cc3ccc4c(c3)OCO4)s2)cc1 | 15
COc1ccc(NC(=O)c2ccc3c(SCC(=O)O)c4c(nc3c2)CCCC4)c(OC)c1 | 0
Cc1ccc(Nc2c(-c3ccccc3O)nc3cnccn23)cc1 | 15
O=C(CCCCCNc1nc(=S)[nH]c2ccccc12)NCc1ccccc1Cl | 17
CCNc1nc(NCC)nc(SCCOc2ccc(C)cc2)n1 | -4
O=C(O)c1ccc(CSc2ccccn2)cc1 | 25
O=c1c(Cc2ccccc2)c(O)ccn1Cc1ccc2c(c1)OCO2 | 2
O=C(O)CCN1CC2([N+](=O)[O-])CC=C(OCCO)C([N+](=O)[O-])(C1)C2 (centres undefined) | 9
O=C(O)C(Cc1ccccc1)N1C(=O)c2cccc3cccc(c23)C1=O (centres undefined) | 21
Cc1ccc(C)c(NC(=O)C(=O)NCc2ccccn2)c1 | 10
Cc1ccc(S(=O)(=O)Nc2ccccc2C(=O)Nc2sccc2C(=O)NN(C)C)cc1 | 12
Cc1onc(-c2ccccc2)c1-c1ccnc(N)n1 | 16
O=C(CCc1nnc(Cc2ccc(-c3ccccc3)cc2)o1)NCCc1cccnc1 | 7
CC(C)OC(=O)/C(=C\c1cccnc1)NC(=O)c1ccccc1 | 12
Cc1cc(/C=C\c2ccccc2)nc2ccccc12 | 26
Cc1cn(CCC(=O)Nc2ccccc2N2CCOCC2)c2ccccc12 | 17
Cc1cc(NC(=O)CC#N)n(-c2ccccc2)n1 | 15
Cc1nc(CCNC(=O)CC2C(=O)NCCN2Cc2ccccc2F)sc1C (centres undefined) | 26
CCOC(=O)Cc1cnc(NC(=O)CSc2nc(C)cc(C)n2)s1 | 20
O=C(CN1CCCc2ccccc21)N1CCc2ccccc21 | 12
CCOC(=O)c1c(C)[nH]c(C)c1C(=O)CSc1nc2ccccc2n1CCOC | 24
CC1=C(C#N)C2(O)C(=O)c3ccccc3C2(O)N1 (centres undefined) | 4
CC(C)CCN1CCN(Cc2ccc(C#CCCO)cc2)CC1CCO (centres undefined) | 17
Fc1ccc(-c2nc3c(-c4ccc(Cl)cc4)cnn3cc2CCN2CCOCC2)cc1 | 4
CC(=O)Nc1ccc(C(=O)OCc2ccccc2Br)cc1 | 10
O=C1CC(Cc2ccc(Cl)cc2)C(=O)N1c1cc(Cl)ccn1 (centres undefined) | 16
Cc1ccc2c(O)c(C)c(=O)[nH]c2n1 | 23
CC(C)c1ccc(/C=C/C(=O)NCCCc2ccccc2)cc1 | 9
Cc1ccc(S(=O)(=O)N2CCCOC2CNC(=O)C(=O)NCCc2c[nH]c3ccccc23)cc1 (centres undefined) | 21
CN(C)c1ccc(-c2noc(C3CCN(C(=O)Nc4ccc(Cl)cc4)CC3)n2)cc1 | 22
COCCN(C(=O)CNC(=O)c1cccs1)C(C(=O)NC(C)(C)C)c1ccccc1 (centres undefined) | 23

Next part.
smiles	Calb biofilm kill
COc1ccc2cc(S(=O)(=O)n3cnc(C)c3)ccc2c1	-3
O=C(Nc1ccccc1)Nc1ccccn1	22
Cc1ccccc1C(=O)NNC(=O)CCC(=O)Nc1cccc(Cl)c1C	11
O=C(CN1C(=O)/C(=C\C=C\c2ccccc2)SC1=S)Nc1ccc(F)cc1	14
Nc1ccc2nc3c(=O)[nH]c(=S)[nH]c3nc2c1	31
CC1CN(c2ccc(NC(=S)Nc3ccc(N4CC(C)OC(C)C4)cc3)cc2)CC(C)O1 (centres undefined)	20
COc1cccc(NC(=O)C(OC(=O)c2ccccc2NS(=O)(=O)c2cccs2)c2ccccc2)c1 (centres undefined)	10
CC(=O)Nc1cc(C(=O)OCC(=O)c2ccccc2)ccc1C	16
COc1cc(OC)c(S(=O)(=O)Nc2ccc(C(=O)N3CCCC3)cc2)cc1NC(C)=O	31
Cc1c(Nc2nc(-c3ccccc3)cs2)c(=O)n(-c2ccccc2)n1C	24
O=C(NCc1cccs1)C(=O)NCC(c1ccco1)N1CCN(c2ccc(F)cc2)CC1 (centres undefined)	15
COc1ccccc1-c1c(-c2ccc(OCC(=O)NN)cc2O)n[nH]c1C(F)(F)F	-8
O=C(NN1CCN(Cc2ccccc2)CC1)c1ccc(N2CCOCC2)c([N+](=O)[O-])c1	1
CCOC(=O)C1CCN(CCC(=O)Nc2ccccc2Cl)CC1	9
Nc1ccc(OC(=O)Nc2ccc(O)cc2)cc1	27
O=C1N(Cc2cccc(Cl)c2)C[C@@H]2C[C@@H](c3ccc4nonc4c3)N3CCC[C@@]123	15
COCCCNC(=S)Nc1ccc(CC(=O)O)cc1	6
CCO[C@@H]1OC(C(=O)NCc2ccccc2)=C[C@H](c2coc3ccccc3c2=O)[C@H]1CCCO	19
CCOC(=O)c1[nH]c2ccccc2c1NC(=O)c1ccc(S(=O)(=O)N2CCOCC2)cc1	12
O=C(NCc1ccccc1)c1cccc(Br)n1	5
CCc1cccc(C)c1NC(=S)N(CCN(C)C)C(C)c1ccco1 (centres undefined)	17
Cc1ccc(S(=O)(=O)Cc2ccccc2Cl)cc1	16
O=C(O)c1cccnc1Cl	7
COc1ccc(/C=C/C(=O)NCCN2CCOCC2)cc1OC	15
CC(C)[C@H](NC(=O)Cc1ccccc1)C(=O)OCc1cc(=O)n2c(n1)sc1ccccc12	16
CCN1CCCc2cc(CN(CCN3CCOCC3)C(=S)Nc3ccccc3C)ccc21	12
NC(N)=N/N=C/c1ccc(Cl)c(Cl)c1	0
CCOC(=O)CN(C)C(=O)CCc1nnc(-c2ccsc2)o1	16
CC(C)(C)c1ccc(S(=O)(=O)Nc2ccc(Cc3ccncc3)cc2)cc1	9
CN(CC(=O)Nc1ccc(S(=O)(=O)N2CCCC2)cc1)Cc1ccc(Cl)c(Cl)c1	3
CC(C)Cn1c(N)c(C(=O)COC(=O)c2cccc(F)c2)c(=O)n(C)c1=O	21
CCCC(=O)Nc1ccc(Cl)c(NC(=O)c2ccc([N+](=O)[O-])cc2Cl)c1	12
CCCCOC(=O)c1ccc(N/C(=N\S(=O)(=O)c2ccccc2)c2ccccc2)cc1	24
O=C(N/N=C/c1ccccc1C(=O)O)c1cc(-c2ccc3c4c(cccc24)CC3)n[nH]1	17
O=c1[nH]c2ccc(NC(=S)NCCc3ccccc3)cc2[nH]1	17
O=C(OCC(=O)N1CCN(S(=O)(=O)c2ccccc2)CC1)c1ccc([N+](=O)[O-])o1	-13
O=C(Nc1cccc([N+](=O)[O-])c1)Nc1cccs1	18
CCn1cc(C2=NC(CCSC)CO2)c2ccccc21 (centres undefined)	9
Cc1sc2nc(CN3CCN(c4ccc(O)cc4)CC3)[nH]c(=O)c2c1C	5
Cc1ccc2nc(-c3ccc(NC(=O)COC(=O)c4cncc(Br)c4)cc3)sc2c1	17
